Mtb bLac sens = beta-lactam sensitization of Mtb H37Rv, H37Rv | M. tuberculosis H37Rv growth with meropenem, percent inhibition; hits of this screen are not shown here | inhibition, % at 25 µM | actives 0.27% (n = 330,000);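 active = about 74% or more and at least 40 points above the plate without the antibiotic, then above 30% in a dose series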;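 also: growth measured after seven days incubation then overnight dye step; 0% = bacteria only wells and 100% = bacteria with antibiotic; twin plates without the antibiotic show which effects depend on it; some results filed as inactive read as strong as hits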
Arbovirus inh = antivirals against arbovirus infection, primary screen, cell-based, full library, 10K replicate subset; arbovirus infection cell-based antiviral screen; inhibition, % at 10 µM; actives 0.37% (n = 200,000); AID 1251, 2008;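 active = inhibition from about 30%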;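 also: bluetongue infection of BSR cells; cell survival read as ATP light after 72 h; 0% = infected wells without compound and 100% = uninfected wells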
Mtb growth = M. tuberculosis H37Rv growth inhibitors, H37Rv strain (AID 1626). M. tuberculosis H37Rv growth inhibition; higher % means a stronger effect. one-dose inhibition, % at 10 µM; IC50 in µM for titrated hits. actives 0.95% (n = 220,000);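 active = confirmed in a dose series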;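 also: bacteria incubated seven days before Alamar blue readout; 0% = bacteria only wells and 100% = bacteria with antibiotic wells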
YopH PTP inh = YopH tyrosine phosphatase inhibitors, primary screen, biochemical, fluorescence Ex485/Em525; YopH tyrosine phosphatase [Yersinia enterocolitica]; inhibition, %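 (about 10 µM by stock and volumes)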; actives 0.16% (n = 140,000);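 active = inhibition of 50% or more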;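 also: controls were vehicle for no effect and minimum signal wells for full effect; inactives centre near -20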
RecA intein inh = Mtb RecA intein splicing inhibitors, primary screen, biochemical, fluorescence, HTS. cell-free RecA intein splicing. actives 0.75% (n = 290,000). inhibition, %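 (about 9 µM by stock and volumes)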. AID 2221, 2009; in the data active = inhibition above about 30%;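 also: 0% = vehicle wells and 100% = reference inhibitor control wells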
Target sequence (P9WHJ3 whole entry, looked up): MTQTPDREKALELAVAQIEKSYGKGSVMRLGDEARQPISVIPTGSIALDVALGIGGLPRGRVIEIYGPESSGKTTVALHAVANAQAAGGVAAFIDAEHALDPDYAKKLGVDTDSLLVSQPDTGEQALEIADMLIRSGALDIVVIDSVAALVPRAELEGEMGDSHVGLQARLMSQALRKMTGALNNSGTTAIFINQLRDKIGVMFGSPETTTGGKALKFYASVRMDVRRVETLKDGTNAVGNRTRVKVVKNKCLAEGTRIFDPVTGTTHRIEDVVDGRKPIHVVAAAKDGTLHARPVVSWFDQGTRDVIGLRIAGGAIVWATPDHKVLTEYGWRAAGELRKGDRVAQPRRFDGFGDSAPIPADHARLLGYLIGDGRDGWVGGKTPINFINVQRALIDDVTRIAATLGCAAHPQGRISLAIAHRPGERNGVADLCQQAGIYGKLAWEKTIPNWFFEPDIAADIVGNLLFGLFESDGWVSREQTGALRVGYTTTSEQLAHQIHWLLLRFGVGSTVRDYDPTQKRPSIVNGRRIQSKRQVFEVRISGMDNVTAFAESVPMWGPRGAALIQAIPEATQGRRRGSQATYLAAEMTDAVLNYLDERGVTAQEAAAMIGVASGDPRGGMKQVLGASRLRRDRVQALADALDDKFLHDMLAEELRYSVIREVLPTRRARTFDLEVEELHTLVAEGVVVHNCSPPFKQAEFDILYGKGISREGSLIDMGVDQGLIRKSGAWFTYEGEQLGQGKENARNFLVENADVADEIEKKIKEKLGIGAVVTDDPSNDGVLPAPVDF
Arbovirus inh repeat = further read-out of Arbovirus inh, marked with its call; inhibition, %; measured here: 10K subset replicate screen; many hits read low in the repeat;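 first of two repeat runs on a subset; 0% = infected and 100% = uninfected wells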
Active calls of the source: *.

Start of the listing, in advance, 7 compounds:
Screening FC(F)(F)c1ccc(N=Cc2sc(N3CCOCC3)nc2-c2ccccc2)cc1 returned Mtb bLac sens 0, Arbovirus inh 6, Mtb growth 7%, YopH PTP inh -22 and RecA intein inh 3.9.
For CCCn1c(=N)n(CC(=O)c2ccc(Cl)c(Cl)c2)c2ccccc21 the results were Mtb bLac sens 1 and RecA intein inh 2.1.
COCCNC(=S)N1CCN(S(=O)(=O)c2ccc(Cl)s2)CC1 was read as Mtb bLac sens 2 and RecA intein inh 1.0.
For O=C1C2CCCN2C(=S)N1c1ccc(Cl)cc1 (centres undefined) the results were Mtb bLac sens 3 and RecA intein inh 4.5.
Screening CCCn1c(=O)c(Cc2ccccc2)c(O)c2ccccc21 returned Mtb bLac sens -10, Arbovirus inh 11, Mtb growth 4%, YopH PTP inh 5 and RecA intein inh -17.
For CCOC(=O)CN1C(=O)C(Sc2n[nH]c(-c3cccc(C)c3)n2)CCc2ccccc21 (centres undefined) the results were Mtb bLac sens 8, Arbovirus inh -25, Mtb growth 16%, YopH PTP inh -37 and RecA intein inh 7.1.
Screening CCN1C(=O)[C@H]2[C@@H](c3ccc(C)cc3)N3C(=O)N(c4ccc(C(F)(F)F)cc4)C(=O)[C@@]3(Cc3ccccc3)[C@H]2C1=O returned Mtb bLac sens -1 and RecA intein inh -2.2.

Main list (from the top)
Screening FC(F)(F)c1ccc(N=Cc2sc(N3CCOCC3)nc2-c2ccccc2)cc1 returned Mtb bLac sens 0, Arbovirus inh 6, Mtb growth 7%, YopH PTP inh -22 and RecA intein inh 3.9.
For CCCn1c(=N)n(CC(=O)c2ccc(Cl)c(Cl)c2)c2ccccc21 the results were Mtb bLac sens 1 and RecA intein inh 2.1.
COCCNC(=S)N1CCN(S(=O)(=O)c2ccc(Cl)s2)CC1 was read as Mtb bLac sens 2 and RecA intein inh 1.0.
For O=C1C2CCCN2C(=S)N1c1ccc(Cl)cc1 (centres undefined) the results were Mtb bLac sens 3 and RecA intein inh 4.5.
Screening CCCn1c(=O)c(Cc2ccccc2)c(O)c2ccccc21 returned Mtb bLac sens -10, Arbovirus inh 11, Mtb growth 4%, YopH PTP inh 5 and RecA intein inh -17.
For CCOC(=O)CN1C(=O)C(Sc2n[nH]c(-c3cccc(C)c3)n2)CCc2ccccc21 (centres undefined) the results were Mtb bLac sens 8, Arbovirus inh -25, Mtb growth 16%, YopH PTP inh -37 and RecA intein inh 7.1.
Screening CCN1C(=O)[C@H]2[C@@H](c3ccc(C)cc3)N3C(=O)N(c4ccc(C(F)(F)F)cc4)C(=O)[C@@]3(Cc3ccccc3)[C@H]2C1=O returned Mtb bLac sens -1 and RecA intein inh -2.2.
`CCN1CCN(C(=O)Cn2cnc3sc(C)c(S(=O)(=O)N4CCN(c5ncccn5)CC4)c3c2=O)CC1` gave Mtb bLac sens 6, Arbovirus inh 5, Mtb growth 2% and RecA intein inh -0.7.
Screening O=C(Nc1ccc(N2CCN(C(=O)c3cccs3)CC2)cc1)c1ccc([N+](=O)[O-])o1 returned Mtb bLac sens 100 and RecA intein inh 6.6.
`O=C(O)[C@@H]1CCCN1c1ncnc2sc3c(c12)CCC3` gave Mtb bLac sens 45, Arbovirus inh 0, Mtb growth -2%, YopH PTP inh 2 and RecA intein inh -3.7.
COc1ccc(/C=C(/NC(=O)c2ccco2)C(=O)Nc2ccc(C(C)=O)cc2)cc1 was read as Mtb bLac sens 1 and RecA intein inh 2.3.
For COc1ccc(-n2cccc2/C=C/[N+](=O)[O-])cc1 the results were Mtb bLac sens 72, Arbovirus inh -33, Mtb growth 12%, YopH PTP inh -18 and RecA intein inh 3.4.
For Cc1ccc(-n2nc3c(c2NC(=O)c2ccc4c(c2)OCO4)CS(=O)C3)c(C)c1 (centres undefined) the results were Mtb bLac sens -4 and RecA intein inh 1.7.
Screening N#CCC(=O)Nc1ccc(C(F)(F)F)cc1N1CCOCC1 returned Mtb bLac sens -4, Arbovirus inh -2, Mtb growth 7% and RecA intein inh -2.7.
`Cc1cc(C)cc(N(CC(=O)N/N=C/c2ccncc2)S(=O)(=O)c2ccccc2)c1` gave Mtb bLac sens -5, Arbovirus inh 2, Mtb growth -9%, YopH PTP inh -26 and RecA intein inh -1.1.
CCc1ccccc1NCC(=O)Nc1ccccc1C(=O)OC was read as Mtb bLac sens 9, Arbovirus inh 8, Mtb growth 8%, YopH PTP inh -8 and RecA intein inh -0.6.
Screening Cc1cc(C)c(C)c(S(=O)(=O)N2CCNCC2)c1C returned Mtb bLac sens -3, Arbovirus inh 1, Mtb growth 0% and RecA intein inh 0.1.
`O=C(O)CSc1nnnn1-c1ccc2c(c1)OCCO2` gave Mtb bLac sens -6, Arbovirus inh 5, Mtb growth -5%, YopH PTP inh -23 and RecA intein inh 0.5.
Screening O=C(Nc1cccc(O)c1)C1CC(c2c(F)cccc2Cl)=NO1 (centres undefined) returned Mtb bLac sens -2 and RecA intein inh -1.5.
COc1cccc(Oc2cn[nH]c2-c2ccc(OC)cc2O)c1 was read as Mtb bLac sens 3, Arbovirus inh -9, Mtb growth 6%, YopH PTP inh -41 and RecA intein inh 14.
`CC(C)C(=O)NC(c1cccs1)c1cc([N+](=O)[O-])c2cccnc2c1O` (centres undefined) gave Mtb bLac sens -4, Arbovirus inh -27, YopH PTP inh 14 and RecA intein inh 1.1.
Nc1nc(SCCOc2ccccc2)n[nH]1 was read as Mtb bLac sens -9, Arbovirus inh -4, Mtb growth -11%, YopH PTP inh -11 and RecA intein inh 3.3.
`Cc1ccc(N2CCN(S(=O)(=O)N3CCOCC3)CC2)cc1C` gave Mtb bLac sens 0, Arbovirus inh -1, Mtb growth -3% and RecA intein inh -5.7.
Screening CSCCC(NC(=O)c1ccccc1)C(=O)NNC(=O)c1csc(N2CCOCC2)n1 (centres undefined) returned Mtb bLac sens 10 and RecA intein inh -1.1.
Screening S=C(NCCc1ccccn1)Nc1ccc(Cl)cc1Cl returned Mtb bLac sens -7, Arbovirus inh 7, Mtb growth 1% and RecA intein inh 0.4.
`O=C(CSCC(=O)N1CCCCC1)Nc1nc(-c2ccccc2)c(-c2ccccc2)s1` gave Mtb bLac sens 0, Arbovirus inh -10, Mtb growth 5% and YopH PTP inh -32.
For CCN(C(=O)CCc1nnc2ccc(NCc3ccco3)nn12)c1ccccc1 the results were Mtb bLac sens 0 and RecA intein inh 1.7.
For O=C1C2C3CCCC3=C3CCCC3C2C(=O)N1c1ccc(Cl)cc1 (centres undefined) the results were Mtb bLac sens -3, Mtb growth 2%, YopH PTP inh -15 and RecA intein inh 2.6.
COc1cc(COCC(O)CN2CCN(CCN3C(=O)c4cccc5cccc(c45)C3=O)CC2)cc(OC)c1OC (centres undefined) was read as Mtb bLac sens 1, Arbovirus inh -4, Mtb growth -7%, YopH PTP inh -11 and RecA intein inh -4.4.
COC(=O)C1=NN(C(C)=O)C2(CC(=O)N(c3cc(C)cc(C)c3)C2=O)C1 (centres undefined) was read as Mtb bLac sens -9, Arbovirus inh -9, Mtb growth -10%, YopH PTP inh -15 and RecA intein inh 30*.

Filtered by structure: those above containing a COOH group
`O=C(O)[C@@H]1CCCN1c1ncnc2sc3c(c12)CCC3` gave Mtb bLac sens 45, Arbovirus inh 0, Mtb growth -2%, YopH PTP inh 2 and RecA intein inh -3.7.
`O=C(O)CSc1nnnn1-c1ccc2c(c1)OCCO2` gave Mtb bLac sens -6, Arbovirus inh 5, Mtb growth -5%, YopH PTP inh -23 and RecA intein inh 0.5.

Further records:
For COc1ccc(-n2nc(C(=O)NCC(=O)N3CCCCC3)c3ccccc3c2=O)c(OC)c1 the results were Mtb bLac sens 0 and RecA intein inh 2.3.
CC(=O)NCCc1ccc(S(=O)(=O)N2CCCC2)cc1 was read as Mtb bLac sens -4, Arbovirus inh -4, Mtb growth -5%, YopH PTP inh -5, RecA intein inh -0.3 and Arbovirus inh repeat 2.
For Cc1nnc(SCC(=O)N2CCN(S(=O)(=O)c3ccc(Cl)cc3)CC2)n(N)c1=O the results were Mtb bLac sens -18, Arbovirus inh 4, Mtb growth 4%, YopH PTP inh -50 and RecA intein inh 3.2.
`COc1nnc(-c2ccc(C)cc2)c2ccccc12` gave Mtb bLac sens 3 and RecA intein inh 1.9.
For CC(C)n1nc(C(=O)Oc2ccc(Cl)cc2)c2ccccc2c1=O the results were Mtb bLac sens 1, Arbovirus inh -6, Mtb growth 9%, YopH PTP inh -46 and RecA intein inh 3.8.
Screening CCOC(=O)c1c(C)[nH]c(C)c1C(=O)Cn1nnc(-c2ccccc2C)n1 returned Mtb bLac sens 2, Arbovirus inh -16, Mtb growth -8%, YopH PTP inh -48 and RecA intein inh 2.9.
CC(=O)N1CCN(S(=O)(=O)c2cccc(C(=O)N(Cc3ccccc3)c3ccc(C)cc3)c2)CC1 was read as Mtb bLac sens -9 and RecA intein inh -3.3.
`COc1ccccc1CC1S/C(=N/N=C/c2ccco2)NC1=O` (centres undefined) gave Mtb bLac sens 2, Arbovirus inh 17, Mtb growth -2% and RecA intein inh -1.3.
For O=C(COC(=O)c1ccccn1)Nc1c(Cl)cccc1Cl the results were Mtb bLac sens -12, Arbovirus inh 0, Mtb growth -11%, YopH PTP inh -32 and RecA intein inh -3.2.
`CC(=O)Nc1c(-c2ccc3ccccc3c2)nc2ccccn12` gave Mtb bLac sens 4 and RecA intein inh -1.1.
`O=C(c1ncc[nH]1)c1cccs1` gave Mtb bLac sens -14, Mtb growth 2% and RecA intein inh 0.5.
`COc1ccc(N2CCN(C(=O)CSc3ncccc3-c3nc4ccccc4[nH]3)CC2)cc1` gave Mtb bLac sens -11, Arbovirus inh -2, Mtb growth -3%, YopH PTP inh -14 and RecA intein inh 0.8.
c1ccc(-c2noc(-c3cccnc3)n2)cc1 was read as Mtb bLac sens 2, Arbovirus inh -3, Mtb growth -7%, YopH PTP inh -20, RecA intein inh 3.1 and Arbovirus inh repeat 1.
For Cc1ccc(/C(O)=C2/C(=O)C(=O)N(Cc3cccnc3)C2c2ccccn2)cc1 (centres undefined) the results were Mtb bLac sens -11, Arbovirus inh 3, Mtb growth -6% and YopH PTP inh -35.
For CN1/C(=C\C(=O)c2cncc(Br)c2)C(C)(C)c2ccccc21 the results were Mtb bLac sens 85, Arbovirus inh -14, Mtb growth 25%, YopH PTP inh -24 and RecA intein inh -59.
CCOC(=O)C1CCCN(C(=O)Cc2ccc(Cl)cc2)C1 (centres undefined) was read as Mtb bLac sens -6, Arbovirus inh 11, Mtb growth 6%, YopH PTP inh 19 and RecA intein inh 1.8.
Screening CCN(CC)C(=O)CCc1nnc(Cc2cccc(C(F)(F)F)c2)o1 returned Mtb bLac sens -6, Arbovirus inh -5, Mtb growth -2% and RecA intein inh -2.4.
CC1CCCN(C(=O)COC(=O)c2ccc(=O)n(Cc3ccccc3)n2)C1 (centres undefined) was read as Mtb bLac sens -1 and RecA intein inh 1.2.
`O=C(CCNS(=O)(=O)c1ccc(Br)s1)N1CCCCC1` gave Mtb bLac sens -15, Arbovirus inh 11, Mtb growth -2%, YopH PTP inh 12 and RecA intein inh -0.1.
`Cc1cc(=O)oc2cc(OCC3CC(c4ccc(N(C)C)cc4)=NO3)ccc12` (centres undefined) gave Mtb bLac sens -9, Arbovirus inh -15, Mtb growth 4% and YopH PTP inh 1.
For Cc1ccsc1/C=N/Nc1ccc(Cl)nn1 the results were Mtb bLac sens -3, Mtb growth 11% and RecA intein inh 0.2.
CC1Cc2ccccc2N1C(=O)COC(=O)c1ccc(Cl)nc1 (centres undefined) was read as Mtb bLac sens 81, Arbovirus inh -1, Mtb growth 11µM* and RecA intein inh 0.2.
Screening CSc1nc(-c2ccccc2)ccc1C(N)=O returned Mtb bLac sens -2, Arbovirus inh 11, Mtb growth -16%, YopH PTP inh 7 and RecA intein inh 2.1.
Screening COc1ccc(CNCc2ccco2)cc1OCc1ccccc1 returned Mtb bLac sens 6, Arbovirus inh 4, Mtb growth -5%, YopH PTP inh -40 and RecA intein inh 4.2.
Screening Cc1c(C(=O)N2CCCCC2)sc(N)c1C#N returned Mtb bLac sens 4, Arbovirus inh 2, Mtb growth -5%, YopH PTP inh -37, RecA intein inh -0.7 and Arbovirus inh repeat -1.
For Cc1ccc2nc(-c3ccccc3)cc(C(=O)NCCCn3ccnc3)c2c1 the results were Mtb bLac sens -2, Arbovirus inh -2, Mtb growth -8%, YopH PTP inh -34 and RecA intein inh -0.3.
CCc1nnc(N/N=C/c2c(Cl)cccc2Cl)n1N was read as Mtb bLac sens -3, Arbovirus inh -3, Mtb growth -6%, YopH PTP inh -37 and RecA intein inh 4.6.
CCC(=O)N1CCc2cc(Br)cc(S(=O)(=O)Nc3c(C)n(C)n(-c4ccccc4)c3=O)c21 was read as Mtb bLac sens -2, Arbovirus inh 0, Mtb growth -13% and RecA intein inh -3.0.
For O=C(CSc1nnc(NC(=O)c2ccco2)s1)Nc1ccccc1Br the results were Mtb bLac sens 2 and RecA intein inh 0.1.

Bioassay records from PubChem BioAssay.

An excerpt. The share of hits here may be higher or lower than overall.
